# Assay outcomes as filed in PubChem.
# TRPML1 blocker: blocks the human TRPML1 channel; activity change, negative = inhibition, % (test concentration not listed); Q9GZU1; AID 624415; TRPML1-inducible cells, Ca2+ dye fluorescence, FDSS; stronger effect = lower value; inhibition of EC80 agonist-evoked calcium signal; 390,000 tested, 0.02% active; in the data active means activity change below about -50%; inconclusive means about -30% to -50%; inactive means above about -30%;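 further: stimulus is agonist 54-4 at its EC80 concentration; on the % scale 0 is the no-effect control and ±100 the full control effect; compound concentration not given in the record; the text of the record puts the active cut at -80%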
# Target sequence (Q9GZU1 whole entry, looked up): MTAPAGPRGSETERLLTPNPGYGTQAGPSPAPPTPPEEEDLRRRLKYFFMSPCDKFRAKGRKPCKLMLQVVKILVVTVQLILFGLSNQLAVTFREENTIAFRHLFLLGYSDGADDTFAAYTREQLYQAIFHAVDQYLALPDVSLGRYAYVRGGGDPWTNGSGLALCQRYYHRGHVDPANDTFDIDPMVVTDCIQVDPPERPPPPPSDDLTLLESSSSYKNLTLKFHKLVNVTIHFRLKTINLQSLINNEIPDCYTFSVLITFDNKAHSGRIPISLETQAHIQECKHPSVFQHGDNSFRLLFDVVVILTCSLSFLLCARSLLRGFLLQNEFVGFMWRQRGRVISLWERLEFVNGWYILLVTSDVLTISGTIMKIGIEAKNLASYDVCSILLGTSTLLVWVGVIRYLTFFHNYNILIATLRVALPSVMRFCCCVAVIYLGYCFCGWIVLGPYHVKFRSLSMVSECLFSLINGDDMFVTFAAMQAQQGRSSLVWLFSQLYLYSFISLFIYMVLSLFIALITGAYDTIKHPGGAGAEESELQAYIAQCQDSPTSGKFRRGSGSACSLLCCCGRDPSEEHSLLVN
#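 TRPML1-DL cells, Tet-induced overnight (~16 h, 37 °C) at 1,500 cells/well, were loaded with Ca8 no-wash dye plus quencher for 45-90 min at room temperature. Compounds were pinned during FDSS kinetic reading; agonist 54-4 at EC80 (4 uM final) then added.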
# ClpP mod: qHTS Assay for Activators of ClpP. AID 651965, 2013. Potency, µM (doses to about 57.5 µM), for the others: top-dose activity change, negative = active. purified B. subtilis ClpP, FRET peptide cleavage, 20 min. 340,000 tested, 1.9% active; active = well fitted falling curve with a large enough effect; inconclusive = small, poorly fitted or top-dose-only effect; inactive = no such curve, though single readings can be large or run the other way; further: potency means the concentration at half of the fitted maximal effect; the source files actives as falling curves though it sought activators and does not explain the sign; nearly all actives have a fitted effect of over 65% in size; many hits overshoot -100%
# Target sequence (P80244 whole entry, looked up): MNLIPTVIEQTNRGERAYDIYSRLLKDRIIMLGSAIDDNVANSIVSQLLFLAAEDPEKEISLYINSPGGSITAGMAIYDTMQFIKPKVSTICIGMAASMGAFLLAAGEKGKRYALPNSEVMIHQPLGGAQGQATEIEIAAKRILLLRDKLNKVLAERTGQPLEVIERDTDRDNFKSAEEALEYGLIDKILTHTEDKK
#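 Purified B. subtilis ClpP, 10 microg/mL final in Tris/HCl pH8 with KCl, BSA, glycerol and Tween-20, cleaved an Abz/nitrotyrosine-quenched decapeptide. Fluorescence (ex 320, em 430) was read at 0 and 20 min at room temperature. Delta was normalized to 5.8 microM ADEP and DMSO/no-enzyme controls.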
# PINK1 modulator: PINK1 expression modulation; 410,000 tested, 0.2% active; Potency, µM (doses to about 76.6 µM), for inactives: at the highest dose activation (PINK1 increase), most hits filed as activators; AID 624263; PINK1 immunofluorescence, high-content cytometry, 24 h; active = well fitted activation curve with a large enough effect; inconclusive = small, poorly fitted or top-dose-only effect; inactive = flat fitted curve, though single readings scatter; cell line not stated here;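 further: potency means the concentration at half of the fitted maximal effect; % of control where 0% means no effect; nearly all actives have a fitted effect of over 65% in size; a mitochondrial uncoupler was the plate control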
#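 Compound titrations (5 concentrations, 24 h) on a stable cell line; DMSO and CCCP controls. Endpoint: fixed-cell PINK1 immunofluorescence with mitochondrial, cell and nuclear markers, scanned by microplate cytometer.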
# Sfp PPTase inh: inhibitors of Bacillus subtilis Sfp phosphopantetheinyl transferase; Potency, µM, for the others: max response, negative = inhibition, hits mostly inhibitors; 310,000 tested, 3.5% active; Q9F4F7; Biochemical Sfp PPTase activity, qHTS; active means well fitted inhibition curve with a large enough effect; inconclusive means small, poorly fitted or top-dose-only effect, or another doubt; inactive means no such curve, though single readings can be large or run the other way;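 further: the enzyme is Sfp with the accession as filed and its product quenches rhodamine fluorescence; potency means the concentration at half of the fitted maximal effect; 0% = enzyme reaction without inhibitor and -100% = no enzyme wells; top concentration of the series not given in the record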
#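 Compounds were incubated with enzyme (final 15 nM) for 15 min at room temperature before substrate addition started the reaction. Fluorescence at 525 nm excitation, 598 nm emission was recorded immediately and after 30 minutes.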
# TRPML1 agonist: activates the human TRPML1 channel | Q9GZU1 | TRPML1-expressing cells, Ca2+ dye fluorescence, FDSS; host cell line not named in the record; reference of the full effect not given here | activation, % (test concentration not listed) | 410,000 tested, 0.12% active | AID 624414; in the data active = activation above about 50%; inconclusive = about 30% to 50%; inactive = below about 30%; further: 0% is about no effect; the text of the record puts the active cut at 80%
#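 Cells: TRPML1-DL, 1X Tet inducer, ~16 h at 37 degrees C/5% CO2. Dye: ABD Ca8 no-wash + quencher, 45-90 min RT. Read: 10 s baseline, compound add, 110 s agonist phase; 54-4 EC80 (4uM final), 110 s antagonist phase.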
# TRPV1 PAM: human TRPV1 potentiation; Q8NER1; TRPV1-expressing cells, Fluo-8 calcium influx, capsaicin EC20 potentiation; host cell line not named in the record; control for the full effect not named in the record; potentiation, % at 8.33 µM; 320,000 tested, 0.02% active; AID 540277; active means potentiation above 80%; inconclusive means 30% to 80%; inactive means below 30%; further: 0% is about no effect
#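 TRPV1-expressing cells were cultured overnight at 35.5C and loaded with Fluo-8 calcium dye for 40 to 90 min at room temperature. After a 10 s baseline, compound was added and calcium influx was read kinetically for 3 min (ex 480/em 520 nm).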
# Menin-MLL FL inh: inhibitors of human menin-MLL interaction, wild-type MLL peptide | Fluorescence polarization, fluorescein-MLL peptide displacement from menin | FP activity change, % at 61.4 µM | 290,000 tested, under 10 active; inconclusive = falling polarisation curve, or a change in total fluorescence; inactive = total fluorescence flat and polarisation flat or rising; no compound was filed as active; the % refers to the polarisation; negative = inhibition;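 further: % of control where 0% means no effect; inhibitors lower the polarisation; unlabelled MLL peptide was the positive control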
# An asterisk follows results filed as active; i = inactive; ? = inconclusive; / = not tested or not shown; [ ] = another dose, or the depositor's remark.
SMILES,TRPML1 blocker,ClpP mod,PINK1 modulator,Sfp PPTase inh,TRPML1 agonist,TRPV1 PAM,Menin-MLL FL inh
OCCC1CN(Cc2nc(-c3ccccc3)cs2)CCN1Cc1ccc(F)cc1 (stereo not given),1.9,1.2%,0.0%,-7.8%,0.1,-4.9,-0.8
Cn1c(CNC(=O)CSc2nc(-c3ccccc3F)nc3cc(=O)[nH]n23)nc2ccccc21,-21.5,-0.6%,1.8%,/,-0.9,/,/
CC(=O)N1c2ccccc2CC1C(=O)N1CCN(c2ccc(F)cc2)CC1 (stereo not given),-23.5,0.9%,0.3%,/,0.5,/,/
c1ccc2c(CSCCc3ccncc3)cccc2c1,2.0,0.4%,6.8%,50.1µM*,0.0,11.4,7.4
O=C(NCCOc1ccc(F)cc1)C1CCC(=O)N(CCCN2CCOCC2)C1 (stereo not given),1.4,-1.4%,2.7%,11.4%,0.5,3.5,/
Cn1c(=O)c2c(c3ccccc31)OC(=O)CC2c1ccccc1 (stereo not given),8.8,20.2%,-0.8%,/,0.5,/,/
CN1CCN(c2nc(-c3cccnc3)nc3scc(-c4ccccc4)c23)CC1,17.1,/,-0.3%,6.9%,-0.8,-10.9,0.8
COc1cc(C2CC(=O)Oc3ccc(C(C)(C)C)cc32)cc(OC)c1OC (stereo not given),-7.0,-5.1%,0.6%,-9.7%,1.0,/,0.8
Cc1ccccc1Cn1nnc2c(=O)[nH]c(C3CCCN(C(=O)c4ccc(F)cc4)C3)nc21 (stereo not given),-8.3,0.0%,2.3%,/,1.9,/,/
CCOc1ccc(-n2c(SCC(N)=O)nc3c(c2=O)SCC3)cc1,14.7,-0.7%,-1.0%,2.1%,-0.4,3.9,-0.8
CCCCS(=O)(=O)C(=C1Nc2ccccc2N1)S(=O)(=O)CCCC,-9.5,-0.2%,-0.6%,-1.0%,0.3,3.8,-0.4
O=c1c2ccccc2c(-c2ccccc2)nn1-c1ccccn1,-9.9,/,1.1%,16.4%,-0.7,9.2,-3.8
O=C1CCC(=O)N1c1ccc(S(=O)(=O)Nc2ccc(Br)cc2)cc1,12.2,/,-1.6%,14.9%,0.3,0.8,4.9
CC(=O)N1c2ccc(S(=O)(=O)NCC3CCC(C(=O)NC(C)(C)C)CC3)cc2CC1C (stereo not given),2.3,0.8%,-0.9%,/,0.6,/,/
O=C(Nc1nnc(-c2ccccc2)s1)c1ccc(Cl)c(S(=O)(=O)N2CCOCC2)c1,/,/,/,0.5%,/,0.0,0.1
CCOc1ccc(NC(=S)N(CCc2c(C)[nH]c3ccccc23)Cc2ccco2)cc1,14.3,1.8%,2.5%,6.3%,0.1,?,3.6
COc1ccc(-c2nnc(-c3cc4c(ccc5ccccc54)oc3=O)o2)cc1,-12.3,?,?,5.6%,3.2,6.0,?
CNC(=O)c1ccc2c(c1)N(Cc1ccccc1Cl)C(=O)c1ccccc1S2,30.0,-0.3%,-1.1%,/,1.8,/,/
Cc1ccc(CSc2nc3ccc(NC(=O)COc4ccc(F)cc4)cc3s2)cc1,-5.5,-0.7%,1.7%,/,-0.9,/,/
Cc1ccc(CNC(=O)CCN2C(=O)[C@@H]3Cc4ccccc4CN3C2=O)cc1,-16.8,-0.5%,3.0%,2.2%,-0.6,-20.9,/
CC(=O)c1cc(CN2CCC(C(=O)Nc3cccc(-c4cscn4)c3)CC2)cs1,28.0,1.6%,-0.6%,6.5%,-0.8,-8.3,/
CC(NC(=O)c1ccc([N+](=O)[O-])cc1Cl)C1CC2CCC1C2 (stereo not given),3.6,/,-0.8%,7.8%,-0.6,-16.7,-9.7
O=C(CN(c1ccc(F)cc1)S(=O)(=O)c1ccccc1)NCc1ccco1,7.2,13.3%,3.1%,6.0%,1.0,10.7,1.3
N#Cc1ccc(OCC(=O)NCCCN2CCCC2=O)cc1,2.7,-1.8%,0.9%,/,-0.5,/,/
CC(C)(C)CN1CCNC[C@H]1Cc1cccc2ccccc12,-11.7,-1.4%,5.6%,/,0.5,?,/
Cc1cccc(NC(=S)NCCc2ccccc2)c1C,15.7,0.4%,2.4%,13.7%,1.6,3.0,-5.2
Cc1ccc2nc(NC(=O)C3CCN(S(=O)(=O)c4cnc[nH]4)CC3)sc2c1,0.8,-3.6%,4.4%,-8.8%,-0.1,0.4,2.5
COc1ccc(Cn2c(CCC(=O)NCc3ccc(Cl)cc3)nc3cccnc32)cc1,10.4,-3.7%,0.7%,/,0.4,/,/
Cc1cccc(NC(=O)CN(c2ccc(C(C)C)cc2)S(=O)(=O)c2c(C)nn(C)c2C)c1C,3.8,-1.3%,0.5%,/,0.8,/,/
COc1ccc(CNC(=O)C(NC(C)=O)C(=O)Nc2ccc(C(C)C)cc2)cc1 (stereo not given),11.3,/,-0.9%,10.1%,-0.7,14.0,4.3
CCc1ccc(OCc2cc(=O)n3c4c(sc3n2)CCCC4)cc1,9.4,-27.1%,0.6%,/,0.5,/,/
CCOc1ccc(C(C)NC(=O)c2cccnc2OCC)cc1OCC (stereo not given),31.9,/,-0.1%,13.5%,-0.3,3.2,-1.8
O=C(NCCCN1CCCC1=O)c1cccc(NS(=O)(=O)c2ccc(Br)cc2)c1,6.3,-2.1%,-1.8%,/,0.2,11.5,/
C#CCNC(=O)/C=C/c1ccc(OC)cc1,-15.8,-4.1%,3.1%,32.3%,0.4,-7.3,3.3
CC(=O)c1ccc(N2CCN(CC(O)COCc3ccco3)CC2)cc1 (stereo not given),22.1,-4.6%,2.4%,-16.8%,-0.3,8.5,5.5
Cn1c(=O)c2c(ncn2CCN(CCO)Cc2ccccc2)n(C)c1=O,-0.2,-3.0%,0.2%,5.1%,-0.4,-11.7,-0.7
CCOc1ccc(NC(=O)CCNS(=O)(=O)c2ccc3c(c2)c(=O)n(C)c(=O)n3C)cc1,18.0,-2.9%,-0.7%[38.3 µM],15.2%,0.5,14.0,3.8
CCOc1ccc(NC(=O)NCc2cccn2Cc2ccccc2)cc1,17.8,-1.8%,10.2%,/,1.2,/,/
CN(CC(=O)Nc1ccc(Cl)c(C(F)(F)F)c1)C(=O)c1cc(=O)[nH]c2ccccc12,-2.4,-2.3%,-4.9%,/,-0.1,16.0,/
C[C@@H]1CCCCO[C@H](CN(C)C(=O)CCC(F)(F)F)[C@@H](C)CN([C@H](C)CO)C(=O)c2cc(NC(=O)c3ccncc3)ccc2O1,15.8,-1.3%,1.3%,/,-0.2,/,/
COc1ccc(NC(=O)c2cccs2)cn1,5.2,/,1.4%,11.5%,-1.1,-15.5,3.1
NS(=O)(=O)c1ccc2c(c1)C1C=CCC1C(C1CC=CCC1)N2 (stereo not given),4.7,-2.8%,-0.7%,20µM*,-0.2,4.5,?
Cc1ccc(NCc2nnc(SCCN3CCCCC3)n2CC2CCCO2)c(C)c1 (stereo not given),1.6,-3.5%,-1.0%,0.6%,1.4,2.9,1.4
COc1cc(C(=O)Nc2nc3ccccc3s2)ccc1OCc1c(C)noc1C,33.9,?,19.4%[38.3 µM],-12.7%,-0.3,-11.9,7.1
CCOC(=O)c1ccc(N2C(=O)c3n[nH]c(-c4cccs4)c3C2c2ccc(Cl)cc2Cl)cc1 (stereo not given),-1.1,-12.7%,-0.9%,/,1.1,/,/
Cc1ccc(NC(=S)Nn2cnnc2)cc1,3.2,2.2%,2.5%,8.91µM*,0.0,7.7,-0.2
CCCCN1C2=C(C(=O)CC(C)(C)C2)C(c2ccccc2)C2=C1c1ccccc1C2=O (stereo not given),5.0,2.5%,5.0%,56.2µM*,1.5,-4.4,4.5
CCN1C(=O)/C(=C2\SC(=S)N(CCCOC)C2=O)c2ccccc21,34.6,-1.9%,1.0%,13.4%,0.8,-1.5,2.2
CCn1cc(S(=O)(=O)c2cc(C)cc(C)c2)c(=O)c2cc(F)c(N3CCN(c4ccccc4)CC3)cc21,-17.9,-3.1%,24.0%,/,0.2,/,/
COC(=O)c1cc(S(=O)(=O)N2c3ccccc3CC2C)cn1C (stereo not given),2.3,/,0.8%,1.4%,0.7,5.3,/

# Next structures.
SMILES,TRPML1 blocker,ClpP mod,PINK1 modulator,Sfp PPTase inh,TRPML1 agonist,TRPV1 PAM,Menin-MLL FL inh
Cc1c(Cl)cnc(NC(=O)CSc2nnnn2C)c1Cl,4.6,-1.0%,2.2%,/,0.2,/,/
COc1ccc(OCCN2CCC(C(=O)NC(c3ccc(F)cc3)c3ncccc3C)CC2)cc1 (stereo not given),/,0.8%,1.4%,/,-0.4,/,/
CCCCC(CC)CNC(=O)C1C2C=CC(C2)C1C(=O)O (stereo not given),-15.2,0.4%,6.0%[38.3 µM],3.7%,0.5,1.2,3.6
Cc1cc(C)c2c(CN3CCCCCCC3)cc(=O)oc2c1,/,-6.0%,1.5%,/,-0.4,/,/
O=C(c1ccc2c(c1)OCO2)N(c1ccc(F)cc1)C1C=CS(=O)(=O)C1 (stereo not given),8.8,0.7%,-3.4%[38.3 µM],-0.2%,0.6,28.0,14.3
CCOC(=O)c1cc(-c2ccccc2)nn1CC1CC(c2ccc(OC)cc2)=NO1 (stereo not given),-2.8,-17.0%,0.0%,/,-0.3,/,/
O=C1c2ccccc2C(=O)N1CCCCSc1nnnn1-c1ccccc1,29.2,-0.6%,0.6%,-8.5%,-0.8,19.7,0.0
COC(=O)c1[nH]c2ccccc2c1NC(=O)CN1CCN(c2cccc(Cl)c2)CC1,37.3,-27.3%,13.9%,15.7%,0.1,1.5,3.1
O=[N+]([O-])c1ccc(NCCc2ccccc2)c(Br)c1,16.6,0.1%,0.6%,-12.8%,-0.1,15.6,0.2
O=C(CN1CCN(Cc2ccccc2)CC1)N/N=C/c1ccco1,-6.9,0.3%,-0.8%,17.5%,1.2,20.9,-1.3
Cc1ccccc1OCC(=O)N(Cc1ccc(N(C)C)cc1)C1CCS(=O)(=O)C1 (stereo not given),-8.0,-1.1%,1.5%,6.3%,1.5,5.5,0.3
Clc1ccc(-c2nnc(COc3ncnc4ccccc34)o2)cc1,-5.3,-22.0%,-0.2%,2.8%,-0.9,15.3,-0.9
O=C1CCCC2=C1C1O[C@](c3ccsc3)(Cc3c1ccc1ccccc31)O2,/,/,/,-16.6%,/,i,9.1[11.7 µM]
O=S1(=O)CC(NCc2ccccc2)C(Nc2ccc(Cl)cc2)C1 (stereo not given),-17.8,0.7%,-2.3%,4.1%,0.2,-13.0,-1.4
